Compound activity from PubChem.
AID923: qHTS Assay for Allosteric/Competitive Inhibitors of Caspase-1: Spectroscopic Profiling in AFC Spectral Region; compound fluorescence, AFC spectral region (405/520 nm); almost no hit is shown here; Potency, µM (top dose mostly 57.5 µM), without a hit: at the top dose fluorescence increase, hits mostly activators; 75,000 tested, 1.1% active; active means well fitted activation curve with a large enough effect; inconclusive means small, poorly fitted or top-dose-only effect;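 further: potency means the concentration at half of the fitted maximal effect; 0% is about no effect; scaled to a free AFC standard on each plate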
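Titrations up to 57 uM read every 20 sec for 3 min (405/520 nm) with 50 nM caspase 1 and 5 uM Ac-WEHD-AFC, pH 7.5 HEPES buffer. Fluorescence-vs-time intercept gave baseline, scaled against on-plate AFC standard.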
A488 autofl: A488 region autofluorescence | compound autofluorescence, A488 spectral region, dye equivalency; hits give high values | max dye equivalency, M | 59,000 tested, 0.1% active | AID 591; active = above 10 nM dye equivalent; inconclusive = 1 to 10 nM; inactive = 1 nM or less; about half of its hits are not listed in these tables;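 further: highest value over a series up to 38 µM; compound alone in buffer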
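Compounds pin-transferred into 100 mM Tris buffer, pH 8.0, incubated 15 min at room temperature, then imaged with 480 nm excitation/540 nm emission filters. Fluorescence converted to Alexa 488 dye-equivalent concentration via an on-plate six-point A488 standard curve.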
A647 autofl: compound autofluorescence in A647 spectral region | max dye-equivalent concentration, M | Compound fluorescence, A647 channel (570/671 nm), Tris buffer | AID 592 | 59,000 tested, under 10 active; active means above 1 µM dye equivalent; inconclusive means 0.1 to 1 µM; inactive means 0.1 µM or less;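 further: values scaled relative to a standard on each plate; highest value over a series up to 38 µM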
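Tris 100 mM pH 8.0; cpd + A647 stds pin-transferred; 15 min RT; CCD imager, ex 570/em 671. Output = A647-equivalent conc. per cpd conc.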
TSHR ag: agonists of human thyroid stimulating hormone receptor. P16473. HEK293-CNG-TSHR cells (CNG channel as cAMP sensor), membrane potential dye, cAMP. Potency, µM (series often up to 57.1 µM), inactives show at the top dose activation, usual class: activators. 73,000 tested, 0.48% active. AID 926; active = well fitted activation curve of enough size with the parental cells flat; inconclusive = any curve in the parental cells; inactive = parental cells flat and receptor cells flat or falling; further: potency means the concentration at half of the fitted maximal effect; % of control where 0% means no effect; weak receptor curves with flat parental cells got no call and are not listed
Target sequence (P16473 whole entry, looked up): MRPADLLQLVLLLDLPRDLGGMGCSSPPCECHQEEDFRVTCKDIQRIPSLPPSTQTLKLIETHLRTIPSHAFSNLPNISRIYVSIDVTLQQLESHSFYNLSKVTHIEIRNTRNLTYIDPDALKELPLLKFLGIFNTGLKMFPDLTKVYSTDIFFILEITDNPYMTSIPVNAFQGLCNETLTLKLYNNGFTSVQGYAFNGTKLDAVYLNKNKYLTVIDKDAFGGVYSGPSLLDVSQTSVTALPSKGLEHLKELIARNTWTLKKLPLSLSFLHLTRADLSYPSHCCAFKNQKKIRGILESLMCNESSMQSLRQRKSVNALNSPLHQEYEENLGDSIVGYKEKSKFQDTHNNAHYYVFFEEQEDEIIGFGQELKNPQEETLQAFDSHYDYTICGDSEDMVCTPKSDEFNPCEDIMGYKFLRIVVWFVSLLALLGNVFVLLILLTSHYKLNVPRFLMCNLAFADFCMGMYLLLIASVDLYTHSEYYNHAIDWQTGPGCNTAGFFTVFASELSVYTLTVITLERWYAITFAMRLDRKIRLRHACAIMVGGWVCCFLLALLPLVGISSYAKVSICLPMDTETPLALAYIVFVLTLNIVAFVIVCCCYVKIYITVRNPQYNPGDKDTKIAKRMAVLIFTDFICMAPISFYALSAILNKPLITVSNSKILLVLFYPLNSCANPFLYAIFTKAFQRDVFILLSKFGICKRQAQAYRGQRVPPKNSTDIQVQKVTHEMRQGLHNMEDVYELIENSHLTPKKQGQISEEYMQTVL
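HEK 293 cells stably expressing TSHR and a cAMP-gated CNG channel; parental CNG-only cells as counterscreen. Cells preloaded 60 min with membrane potential dye plus 100 uM RO 20-1724, then compound 30 min; fluorescence read at 590 nm.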
Resorufin fluor: resorufin region autofluorescence; Compound fluorescence, resorufin region 547/598 nm, buffer; hits give high values; max dye-equivalent concentration, M; 59,000 tested, 0.04% active; active = above 10 nM dye equivalent; inconclusive = 1 to 10 nM; inactive = 1 nM or less; a few of its hits are not listed in these tables; further: highest value over a series up to 38 µM
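Tris 100 mM pH 8.0; compound added, 15 min RT; CCD imager read, ex 547 nm/em 598 nm; signal normalized to resorufin standard curve (six concentrations per plate) as dye-equivalent concentration.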
Numbers without * were called inactive; i = inactive; ? = inconclusive; · = no result given; & = joins results of further samples; [ ] = dose if it differs, or a comment. Some of the compounds tested; count on the stated rates, not on these rows.

Each structure is followed by: AID923	A488 autofl	A647 autofl	TSHR ag	Resorufin fluor
1	COc1ccccc1C(=O)N1CCN(S(=O)(=O)c2ccccc2)CC1
 : 0.2%	·	·	5%	·
2	O=C(NCCc1ccco1)c1nn(Cc2ccccc2)c(=O)c2ccccc12
 : 0.7%	i	1e-09	?	i
3	O=C(c1ccccc1Br)N1CCN(c2ccccc2)CC1
 : -2.4%	i	1.6e-08	6%	i
4	O=c1oc2ccccc2c(N2CCCCC2)c1CN1CCCCC1
 : 2.9%	i	3.4e-08	?	i
5	O=C(CCC(=O)c1cccs1)OCc1nc2ccccc2s1
 : 1.2%	i	2.7e-08	4%	i
6	CS(=O)(=O)N1CCN(C(=O)c2cc(-c3cccs3)nc3ccccc23)CC1
 : 2.9%	i	3.1e-09	20µM*	i
7	COc1ccccc1C(=O)n1nc(-c2cccnc2)nc1N
 : 0.3%	·	·	7%	·
8	Cc1cccc(N2CCN(S(=O)(=O)c3ccc4c(c3)CCN4C(=O)CCC(=O)O)CC2)c1C
 : -0.9%	i	2.7e-08	3%	i
9	CC1(C)Oc2cc3c(cc2O1)OC(C)(C)O3
 : -3.7%[11.5 µM]	·	·	?	·
10	COC(=O)C1=C(C)NC(=O)NC1C1CC=CCC1 (stereo not drawn)
 : 0.9%	·	·	-13%	·
11	CCOc1ccc(-n2cc(C(=O)NCc3ccco3)c3cc(OC)c(OC)cc3c2=O)cc1
 : 0.2%	i	4.2e-09	8%	i
12	CCCCCC(=O)Nc1ccc2oc(-c3cccnc3)nc2c1
 : -0.2%	i	3.6e-09	-15%	i
13	Cc1ccc(N(Cc2ccccc2)Cc2ccccc2)cc1
 : 0.0%[11.5 µM]	i	3.2e-08	-3%[11.4 µM]	i
14	CCC1CCCCN1CCCNC(=O)c1ccc(CS(=O)(=O)Cc2ccccc2F)o1 (stereo not drawn)
 : 0.5%	i	1e-09	-1%	i
15	Cc1nc2c(cc(Oc3ccc(S(=O)(=O)N4CCOCC4)cn3)c3ccsc32)s1
 : 0.5%	i	3.1e-08	17%	i

Records 10 through 15, quoted:
Each structure is followed by: AID923	A488 autofl	A647 autofl	TSHR ag	Resorufin fluor
10	COC(=O)C1=C(C)NC(=O)NC1C1CC=CCC1 (stereo not drawn)
 : 0.9%	·	·	-13%	·
11	CCOc1ccc(-n2cc(C(=O)NCc3ccco3)c3cc(OC)c(OC)cc3c2=O)cc1
 : 0.2%	i	4.2e-09	8%	i
12	CCCCCC(=O)Nc1ccc2oc(-c3cccnc3)nc2c1
 : -0.2%	i	3.6e-09	-15%	i
13	Cc1ccc(N(Cc2ccccc2)Cc2ccccc2)cc1
 : 0.0%[11.5 µM]	i	3.2e-08	-3%[11.4 µM]	i
14	CCC1CCCCN1CCCNC(=O)c1ccc(CS(=O)(=O)Cc2ccccc2F)o1 (stereo not drawn)
 : 0.5%	i	1e-09	-1%	i
15	Cc1nc2c(cc(Oc3ccc(S(=O)(=O)N4CCOCC4)cn3)c3ccsc32)s1
 : 0.5%	i	3.1e-08	17%	i

Next section
Each structure is followed by: AID923	A488 autofl	A647 autofl	TSHR ag	Resorufin fluor
16	Cc1cccc(C)c1-n1nnnc1S(=O)(=O)Cc1ccccc1Cl
 : -1.7%	i	1e-09	?	i
17	CCN(C(=O)c1cccc(F)c1)c1ccccc1C
 : 0.2%	i	1e-09	·	i
18	c1csc(CN2CCN(Cc3cccs3)C2c2cccs2)c1
 : 0.4%	i	2.3e-08	?	i
19	O=C(CSc1nc2cc(Cl)ccc2s1)N1CCN(C(=O)c2ccco2)CC1
 : -0.5%	i	2.3e-08	?	i
20	Cc1cc2c(C)nc(Cc3ccccc3)nc2o1
 : ·	i	1e-09	·	i
21	Cc1nn(CC(=O)Nc2ccc3c(c2)oc2ccccc23)c(=O)c2ccccc12
 : 0.4%	i	4.5e-08	0%	i
22	COc1ccccc1N1CCN(C(=O)CN(Cc2ccc(Cl)cc2)S(C)(=O)=O)CC1
 : 1.3%	i	1e-09	10%	i
23	Cc1cc(C(C)(C)CC(C)(C)C)ccc1OCCOCC[N+](C)(C)Cc1ccccc1
 : -2.0%	i	5.1e-09	?	i
24	COc1ccc(Cn2c(C)nc3c(c2=O)c2nc4ccccc4nc2n3Cc2ccco2)cc1
 : 17%	i	6.6e-09	?	i
25	Cn1c(=O)c2c(nc(SCC(=O)NC3CCCCC3)n2C)n(C)c1=O
 : -0.6%	·	·	5%	·
26	Cc1nnc(SCc2ccccc2F)n1NCc1cccs1
 : -1.7%	i	1.3e-08	7%	i
27	COc1ccc(OCc2nnc(SCC(=O)O)n2N)cc1
 : -1.6%	i	3.6e-08	-8%	i
28	Cn1cccc1C(=O)N1CCC[C@@]2(CCN(Cc3cc(C(F)(F)F)cc(C(F)(F)F)c3)C2)C1
 : -0.9%	i	1.7e-08	?	i
29	COc1cc(CN2CCSCC2)cc(OC)c1OC
 : -1.0%	·	·	7%	·
30	O=C(c1cccs1)N1CCC(c2ccccc2)C1 (stereo not drawn)
 : 0.5%	i	8e-08	26%	i

The listing continues.
Each structure is followed by: AID923	A488 autofl	A647 autofl	TSHR ag	Resorufin fluor
31	O=C(O)C1CCCN1S(=O)(=O)c1ccc2[nH]c(=O)c(=O)[nH]c2c1 (stereo not drawn)
 : -0.6%	i	6.3e-09	-10%	i
32	CC1CCCC(C)N1C(=O)c1cc(F)c(F)cc1Cl (stereo not drawn)
 : 1.7%	i	9.5e-09	-5%	i
33	Cc1ccc(NS(=O)(=O)c2ccc3c(c2)c(=O)n(C)c(=O)n3C)cc1F
 : 0.0%	i	1e-09	5%	i
34	COC(=O)c1ccc(NC(=O)CNC(=O)C2CCCCC2)c(C)c1
 : 1.5%	i	3.8e-09	6%	i
35	O=S(=O)(c1ccc(OCC(O)CNCc2ccco2)c(Cl)c1)N1CCOCC1 (stereo not drawn)
 : 0.2%	i	1e-09	-7%	i
36	CC1=NC(C(F)(F)F)(C(F)(F)F)C2=C(CC(C)(C)CC2=O)N1Cc1ccco1
 : -1.3%	i	1.4e-08	17%	i
37	COc1ccc(-c2cn3cccnc3n2)cc1NC(=O)c1ccc(Br)o1
 : 1.5%	i	3.3e-08	3%	i
38	CCn1c(N)c(C(=O)NCC2CCCO2)sc1=S (stereo not drawn)
 : 2.1%	i	1.8e-08	?	i
39	COc1cccc(C2C(C(=O)c3cccs3)=C(O)C(=O)N2c2cc(C)on2)c1 (stereo not drawn)
 : ·	i	1e-09	·	i
40	Cc1nnc(SCc2nc3ccccc3s2)n1-c1ccccc1
 : 0.4%	i	1e-09	7%	i
41	CCOC(=O)C1CCN(C(=O)c2ccco2)CC1
 : 1.9%	i	1.2e-08	13%	i
42	Cn1c(Cn2c(=O)sc3ccccc32)nnc1SCC(=O)N1CCCC1
 : 0.6%	·	·	-2%	·
43	CC(C)C(=O)Nc1ccc2c(c1)C(=O)N(CCC(=O)O)C2=O
 : 6.4%	·	·	1%	·
44	CC1CCCC(C)N1CC(O)COc1ccc(Cl)cc1 (stereo not drawn)
 : -1.2%	i	1e-09	15%	i
45	CC(C)(C)NS(=O)(=O)c1ccc(OCC(=O)Nc2ccc3c(c2)OCCO3)cc1
 : -0.1%	i	4e-08	-1%	i

Carrying on:
Each structure is followed by: AID923	A488 autofl	A647 autofl	TSHR ag	Resorufin fluor
46	CN(C)S(=O)(=O)c1cccc2nsnc12
 : 3.2%	i	4.2e-09	-3%	i
47	COC(=O)N1[C@H](Cc2ccccc2)C=C[C@]1(C)C(=O)O
 : -2.2%	·	·	8%	·
48	O=C1C2C3C=CC(C3)C2C(=O)N1CNc1ccc(O)cc1 (stereo not drawn)
 : 7.7%	i	3.2e-08	-1%	i
49	CO/N=C(\C(=O)N[C@@H]1C(=O)N2C(C(=O)O)=C(COC(C)=O)CS[C@@H]12)c1csc(N)n1
 : -0.2%[25.7 µM]	i	4.4e-08&2.8e-08	12%[25.6 µM]	i
50	O=C(Oc1ccc2c(c1)OCO2)c1cccs1
 : -1.7%	i	3.6e-08	5%	i
51	O=C(CSc1nc2ccccc2c(=O)n1C1CC1)NCc1ccccc1
 : 0.6%	i	6.1e-09	2%	i
52	O=C(CN1CCN(Cc2ccccc2F)C1=O)NCc1cccnc1
 : 2.6%	·	·	5%	·
53	O=C1CCCN1CCCNc1ncnc2c1[nH]c1ccc(Cl)cc12
 : -0.8%	i	4.2e-09	4%	i
54	CCOC(=O)CCc1c(C)nc2cc(-c3ccc(F)cc3)[nH]n2c1=O
 : -1.5%	·	·	-5%	·
55	COC(=O)CSc1nnc(CNS(=O)(=O)c2ccc(C)cc2)n1C
 : 0.5%	i	4.8e-08	-2%	i
56	COc1ccc(-c2nnc(SCC(=O)N3CCCCC3)o2)cc1OC
 : 3.8%	·	·	1%	·
57	Cc1ccccc1NC(=O)C1CCCN(S(=O)(=O)c2c(C)noc2C)C1 (stereo not drawn)
 : 3.3%	i	1.4e-09	-1%	i
58	Cn1c(CCN2CCCCC2)nc2cc(NS(=O)(=O)c3ccc(Cl)cc3)ccc21
 : -1.3%	i	1.8e-09	1%	i
59	c1ccc(-n2cnc3cc(NCc4ccccn4)ccc32)cc1
 : 2.3%	i	1e-09	-12%	i
60	CCOC(=O)c1cc(CNC(=O)c2c(C)oc3c2CCCC3)c(C)o1
 : 1.7%	i	3.5e-09	11%	i

Continued:
no.	SMILES	AID923	A488 autofl	A647 autofl	TSHR ag	Resorufin fluor
61	COc1ccc(C(=O)N2CCC3(CC2)CCN(c2ccccc2)CC3)cc1	-0.2%	i	1e-09	14%	i
62	CCCN1C(=O)c2ccccc2NC1c1ccc(OC)cc1OC (stereo not drawn)	7.4%	i	1e-09	?	i
63	CN(C)C(=O)N1CCC(C(=O)NCC2CCCO2)CC1 (stereo not drawn)	-2.9%	i	1.4e-08	-5%	i
64	CCN(CC)C(=O)Cc1cc(C(=O)O)c2ccccc2n1	-0.6%	i	2e-08	7%	i
65	CCN1C(=O)c2cccc3c(N)ccc1c23	1.1%	·	·	-6%	·
66	c1ccc(Cc2nnc3sc(-c4ccncc4)nn23)cc1	2.0%	i	2.1e-08	11%	i
67	CCOC(=O)C1CCN(C(=O)C2CCN(S(=O)(=O)c3cc(Cl)ccc3Cl)CC2)CC1	0.7%	i	1.3e-09	·	i
68	C=CCN(CC=C)C(=O)C1CC(=O)N(c2ccc(Br)cc2)C1 (stereo not drawn)	2.0%	·	·	11%	·
69	CC1Cc2nc(SCC(=O)N3CCCC3)n(C)c(=O)c2S1 (stereo not drawn)	-2.9%	·	·	-4%	·
70	C=Cn1ccnc1P(=S)(c1ccc2c(c1)c1ccccc1n2CC)c1nccn1C=C	0.5%	i	2.6e-08	-1%	i
71	CNC(=O)CSc1nnc(-c2cccnc2)n1CCc1ccccc1	0.9%	i	1e-09	9%	i
72	CC1CCN(S(=O)(=O)c2cccc(C(N)=O)c2)CC1	0.8%	i	1e-09	-2%	i
73	CNCCC(Oc1ccc(C(F)(F)F)cc1)c1ccccc1 (stereo not drawn)	-1.2%	i	1e-09	·	i
74	CCN1C(=O)C2(C(C#N)=C(N)Oc3cc(C)oc(=O)c32)c2ccccc21 (stereo not drawn)	0.7%	i	4.3e-09	2%	i
75	CCOCCCNC(=O)CCCn1nc(C)n2c(cc3sccc32)c1=O	0.7%	·	·	0%	·
76	O=C(CCS(=O)(=O)c1cccs1)N1CCCC1	0.4%	i	3.2e-09	-2%	i
77	CCCSc1nnc(-c2ccccc2NC(=O)CC)c(=O)[nH]1	7.8%	i	1e-09	7%	i
